HIV TAR-Tat – TAR RNA-Tat peptide displacers, HIV-1, primary screen, biochemical, FRET, FAM/TAMRA-labeled Tat | actives 0.6% (n = 100,000) | z-score (concentration not given with the values) | HIV-1 TAR RNA, Tat peptide displacement FRET; stronger effect = higher value | AID 1259389, 2018;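 further: score is relative to mean and SD of negative controls; some compounds called inactive have numbers as strong as hits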
CDC25B CDK2 inh – primary biochemical HTRF screen for blockers of M-phase inducer phosphatase 2 binding to CDK2/cyclin A; z-score (test concentration not listed); HTRF CDC25B-CDK2/CyclinA binding, anti-His/anti-Flag; stronger effect = higher value; actives 0.72% (n = 94,000);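 further: score is relative to mean and SD of negative controls; strong numbers were not always called active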
Numbers without * were called inactive; · = no result given.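 How the source made its calls: active means z-score from 3 up in half or more of its runs; inactive means the rest.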 Rows were taken by chance; 0.94% or so of the library scored in one or more.

The first two entries (preview)
Under each structure – HIV TAR-Tat	CDC25B CDK2 inh
CC1CCN(C(=O)Cn2c(=O)n(CC3CCC(C(=O)NC(C)C)CC3)c(=O)c3sccc32)CC1 (centres undefined)
→ -0.9	·
Cc1cc(C)c(C#N)c(SCC(O)c2cccc([N+](=O)[O-])c2)n1 (centres undefined)
→ ·	-1

This part in full, from the first entry:
Under each structure – HIV TAR-Tat	CDC25B CDK2 inh
CC1CCN(C(=O)Cn2c(=O)n(CC3CCC(C(=O)NC(C)C)CC3)c(=O)c3sccc32)CC1 (centres undefined)
→ -0.9	·
Cc1cc(C)c(C#N)c(SCC(O)c2cccc([N+](=O)[O-])c2)n1 (centres undefined)
→ ·	-1
Cc1nc(N2CCCC(C(=O)NCCN3CCCC3)C2)c2c(C)noc2n1 (centres undefined)
→ 3	·
CC1CCc2[nH]nc(-c3nc(-c4ccc(Cl)cc4)no3)c2C1 (centres undefined)
→ 1.6	-1.5
CSc1ccc(C2c3c(oc4ccc(F)cc4c3=O)C(=O)N2c2ccc(C)cn2)cc1 (centres undefined)
→ -6.6	-9.9
Cc1ccc(C)c(-c2n[nH]n3c2nc(=O)c2ccccc23)c1
→ 1.8	·
Cc1cc(NS(=O)(=O)c2ccc3oc(=O)c4ncn(C)c4c3c2)ccc1Br
→ 0.1	·
O=C(Nc1ccc(Cl)cc1)C1CCCN(c2nnc(N3CCCC3=O)s2)C1 (centres undefined)
→ 0.97	-1.8
Cc1ccc(-c2noc(-c3nnn(-c4ccc(F)c(Cl)c4)c3C)n2)cc1
→ 0.58	·
Cc1c(C(=O)NC2CCCc3ccccc32)sc2nc3n(c(=O)c12)CCCC3 (centres undefined)
→ 2.1	·
O=C(O)[C@H](Cc1c[nH]c2ccccc12)N1C(=O)c2ccccc2C1=O
→ 2.5	·
O=C(O)c1ccc2c(c1)C1C3CCC(C3)C1C(c1ccc(F)cc1)N2 (centres undefined)
→ 0.87	0.13
NCCSC12CC3CC(CC(C3)C1)C2
→ ·	-2.3
COc1cc2ccc(=O)oc2cc1O
→ -1.6	·
CC1(C)CC(=O)C2=C(C1)Nc1nc(SCc3ccccc3Cl)[nH]c(=O)c1C2c1cccnc1 (centres undefined)
→ ·	-0.69
COc1cc2nc(-c3ccc(N4C(=O)CCC4=O)cc3)oc(=O)c2cc1OC
→ 1.8	-0.45
C=CCOc1ccc(C2N3CC4(CCC)CN2CC(CCC)(C3)C4=O)cc1 (centres undefined)
→ ·	-1.2
COC(=O)c1cc(-c2ccc(F)cc2)cc2ccccc12
→ -0.75	-0.76
CCOC(=O)c1c(C)nc2ccccc2c1N
→ ·	0.28
O=C(Nc1nnc(-c2ccccc2)s1)C(=O)c1c[nH]c2ccccc12
→ 2.7	-0.89
Cc1ccc2c(N)c(C(=O)c3ccc(-c4ccccc4)cc3)sc2n1
→ -0.06	-3.1
CCOC(=O)c1cnc(N2CCCCC2)nc1C
→ -0.45	-2.5
O=C(C1CCCN(S(=O)(=O)c2cccc3nsnc23)C1)N1CCC(N2CCCCC2)CC1 (centres undefined)
→ ·	-1.8
CCOc1ccc(C(C2=C(O)CC(C)(C)CC2=O)C2C(=O)CC(C)(C)CC2=O)cc1 (centres undefined)
→ 1.1	-0.37
O=C1CCc2cc(S(=O)(=O)Nc3ccc(Br)cc3)cc3c2N1CC3
→ 1.1	·
Cc1cccn2c(=O)c(C(=O)N3CCOCC3)cnc12
→ 1.7	·
COc1ccc(OCC(O)Cn2c(N3CCCCC3)nc3c2c(=O)[nH]c(=O)n3C)cc1 (centres undefined)
→ ·	-0.21
COc1ccc(-c2nc(Nc3cnc(SC)nc3)sc2C)cc1
→ 0.05	-0.3
COc1ccc(NC2c3ccccc3C(=O)N2c2ccc(Cl)cc2)cc1OC (centres undefined)
→ 1.2	0.96
C/C=C(\C)C(=O)NC(=S)NNC(=O)c1cc(OC)c(OC)c(OC)c1
→ ·	-0.51

Look-ups from above.
For HIV TAR-Tat, `Cc1cc(NS(=O)(=O)c2ccc3oc(=O)c4ncn(C)c4c3c2)ccc1Br` has the entry 0.1
For HIV TAR-Tat, `COc1ccc(-c2nc(Nc3cnc(SC)nc3)sc2C)cc1` has the entry 0.05
For CDC25B CDK2 inh, `O=C(C1CCCN(S(=O)(=O)c2cccc3nsnc23)C1)N1CCC(N2CCCCC2)CC1` (centres undefined) has the entry -1.8

Further structures follow:
Under each structure – HIV TAR-Tat	CDC25B CDK2 inh
CCCCSc1nc2c(c(=O)[nH]1)C(c1ccc(F)cc1)C(C(=O)OC)=C(C)N2 (centres undefined)
→ 1.6	0.48
NC(=O)CN1C(=O)C(O)(CC(=O)c2ccc(F)cc2)c2ccccc21 (centres undefined)
→ -0.04	16*
Cc1cccc(-n2c(SCc3cc(=O)n4c(C)cccc4n3)nc3[nH]ncc3c2=O)c1
→ ·	0.12
O=C(O)C1CSC(c2ccc3c(c2)OCCO3)N1 (centres undefined)
→ ·	1.5
O=c1ccc(-c2ccc(S(=O)(=O)Nc3ccc(F)c(Cl)c3)o2)n[nH]1
→ 0.46	·
O=C1CCCC2=C1C(c1ccco1)N(C(=O)NCc1ccco1)c1ccccc1N2 (centres undefined)
→ 2.9	·
S=C(SCc1ncon1)N1CCCC1
→ ·	-1.1
COc1ccc(C(=O)N2c3nc(-c4cccnc4)nn3C3(CCCCC3)[C@@H]3CCCC[C@@H]32)cc1OC
→ 0.81	-1.1
CCCNC(=O)c1c(C)c(C(=O)OCC)n(CC)c1C
→ ·	-1.1
N#C/C(=N\O)C(=O)c1ccc(Cl)cc1
→ ·	-2.1
N#C/C(=C(/O)c1ccco1)c1nc2ccccc2s1
→ ·	-1.1
CS(=O)(=O)c1ccc(-c2cccc(NS(=O)(=O)c3ccccc3Cl)c2)nn1
→ 0.93	·
Cc1ccc(-n2c(-c3ccc(Cl)cc3)cn3c4c(=O)n(C)c(=O)n(C)c4nc23)cc1N
→ -2.3	1.1
O=C(Cn1c2ccccc2n2nc(-c3ccco3)nc12)c1cccs1
→ 2.8	-1.1
CCc1ccc(-c2nc(C(N)=O)c3[nH]c(=O)n(C4CCCCC4)c3n2)cc1
→ -1.2	·
CCc1nnc2sc(/C=C/c3ccccc3)nn12
→ -0.16	-1.1
Cc1ccccc1S(=O)(=O)Nc1ccc2oc3c(c2c1)CCCC3
→ 0.69	-0.48
O=C(Nc1ccccc1Oc1ccc(Cl)cc1Cl)c1cccs1
→ ·	0.35
O=C1C2CCCCC2C(=O)N1CC(=O)N1c2ccccc2Sc2ccccc21 (centres undefined)
→ -0.06	0.36
CN(C)c1ncnc(Oc2cccc(C(F)(F)F)c2)c1[N+](=O)[O-]
→ ·	-1.2
CC(C)n1c(NCc2ccccc2O)nc2ccccc21
→ 0.04	-1.5
COC(=O)c1ccc(NC(=O)CCCC(=O)OCC(=O)c2ccc(C)c([N+](=O)[O-])c2)cc1
→ ·	0.06
Cc1nn(-c2cccc(F)c2)c2[nH]c(=O)cc(C(F)(F)F)c12
→ 1.6	·
O=C(Nc1ccc2nc3n(c(=O)c2c1)CCCC3)c1cc2ccccc2[nH]1
→ -0.28	-0.88
NS(=O)(=O)c1ccc(Oc2c(Cl)cccc2[N+](=O)[O-])cc1
→ ·	0.14
COC(=O)C(C)Sc1ccc2nnc(-c3ccc(F)cc3)n2n1 (centres undefined)
→ ·	-1.9
CC1(C)Cc2nc3c(cc2CO1)c(=O)n(-c1ccccc1)c(=O)n3CC(=O)c1ccccc1
→ -0.07	-1.3
Fc1ccccc1CNc1nc(-c2ccccc2)no1
→ 1.5	·
O=C(NCCCN1CCc2ccccc2C1)c1cc2c(s1)-c1ccccc1OC2
→ 0.72	0.04
CCOC(=O)c1c(NC(=O)Cc2cccs2)sc(C(=O)NC2CCCCC2)c1C
→ ·	-1.6

Part of the list above, as labelled records:
> N#C/C(=N\O)C(=O)c1ccc(Cl)cc1
  HIV TAR-Tat: ·
  CDC25B CDK2 inh: -2.1
> N#C/C(=C(/O)c1ccco1)c1nc2ccccc2s1
  HIV TAR-Tat: ·
  CDC25B CDK2 inh: -1.1
> CS(=O)(=O)c1ccc(-c2cccc(NS(=O)(=O)c3ccccc3Cl)c2)nn1
  HIV TAR-Tat: 0.93
  CDC25B CDK2 inh: ·
> Cc1ccc(-n2c(-c3ccc(Cl)cc3)cn3c4c(=O)n(C)c(=O)n(C)c4nc23)cc1N
  HIV TAR-Tat: -2.3
  CDC25B CDK2 inh: 1.1

Later entries.
Under each structure – HIV TAR-Tat	CDC25B CDK2 inh
N#Cc1nc(/C=C/c2cccs2)oc1NCc1cccnc1
→ 1.8	-1.1
Cn1nc(C(=O)N2CC=C(c3ccccc3)CC2)c2c1-c1ccccc1OC2
→ 0.18	-0.35
O=C(c1ccc(N2CCCS2(=O)=O)cc1)N1CCN(C2CCCCC2)CC1
→ 1.1	·
Cc1cccc(NS(=O)(=O)c2cn(C)cn2)c1C
→ 1.5	·
Cn1nc(C(=O)N2CCN(C3CCCCC3)CC2)c2c1-c1ccsc1CC2
→ -0.76	·
CCCn1c2ccccc2c2cnn(CC(=O)NCc3ccccn3)c(=O)c21
→ -0.15	·
COC(=O)c1ccc(-c2cn3cccnc3n2)cc1
→ ·	-1.1
O=C1c2ccccc2C(=O)N1CCCc1nc2ccccc2c(=O)n1CCCn1ccnc1
→ ·	-2.2
CC1=C(C(=O)Nc2ccccc2)C(CC(C)C)n2ncc(C(=O)Nc3ccccc3)c2N1 (centres undefined)
→ -0.07	0.36
Cc1ccccc1OCc1nnc2n1CC(C)S2 (centres undefined)
→ ·	-2.3
CC(C)NC(=O)c1c(NC(=O)c2cccs2)sc2c1CCCC2
→ 1.9	-2.5
Cc1ccc(C2=NC(c3ccc(F)cc3)=Nc3ccc(Cl)cc3N2)o1
→ -0.3	-0.84
O=C(CSc1nc(=O)n(CCN2CCOCC2)c2c1CCC2)Nc1ccc2c(c1)OCO2
→ 0.02	·
CC1CN(C(=O)N2CCC(C(=O)Nc3ccccc3Br)CC2)c2ccccc2O1 (centres undefined)
→ 2.5	·
CCCCOc1ccc2nnc(-c3ccc(Br)cc3)n2n1
→ ·	-2.1
Cc1ccsc1C1CC(=O)Oc2c1c(=O)n(C)c1ccccc21 (centres undefined)
→ 0.56	-1.7
COc1cc(Cl)cc2c1OC=CC(C(=O)NC1CCCCC1)=C2
→ -0.46	-1.4
O=c1c(NC2CCCCC2)c(-c2ccc(Cl)cc2)c1=O
→ -1.5	·
COC(=O)C1C(=O)C2=C(CC1C)NC(C)=C(C(=O)OC1CCCCC1)C2c1ccc2c(c1)OCO2 (centres undefined)
→ 2.3	-0.3
N/C(=N\O)C(F)(F)C(F)(F)C(F)(F)C(F)(F)/C(N)=N/O
→ ·	-1.1
CC1CCN(c2c(NCC3CCC(C(=O)NCCC4=CCCCC4)CC3)c(=O)c2=O)CC1 (centres undefined)
→ 1	-1.5
Clc1ccc2nc(-c3ccccc3)cn2c1
→ 0.93	0.35
CCn1cc(C2=NOC(C(=O)Nc3ccc(F)c(Cl)c3)C2)c(C)n1 (centres undefined)
→ 0.5	-0.48
CC1(C)CC(=O)C2=C(C1)Nc1nc(SCc3ccccc3Cl)nn1C2c1ccncc1 (centres undefined)
→ ·	0.27
CCNC(=O)c1cc2cc3ccc(Cl)cc3nc2o1
→ 2.9	·
Cc1cccc(-c2nc3c4c(C)c(C)n(CC(C)C)c4ncn3n2)c1
→ 0.81	-2
COc1ccc(NC(=O)NCc2nnnn2-c2ccccc2)cc1
→ 0.4	·
Cc1nc(-c2csc(S(=O)(=O)Nc3cccc(Br)c3)c2)no1
→ 1.6	·
CC(C)OCCCNc1nnc2c3ccccc3n(C)c2n1
→ 1.4	-1.2
O=C1NC(=O)C2C3CC(C4N=NN(c5ccc(Br)cc5)C34)C12 (centres undefined)
→ ·	-3.3

Later entries.
Under each structure – HIV TAR-Tat	CDC25B CDK2 inh
COC(=O)c1ccc(C(=O)OC)c(NC(=O)N2CC3CCCN3c3ccccc32)c1 (centres undefined)
→ 0.14	·
COCCCNC(=O)c1csc2c1CCC(C)C2 (centres undefined)
→ 1.1	-0.59
CCOC(=O)c1sc(SC)c(-c2ccccc2)c1N
→ ·	-1.1
COc1nccn(-c2ccc(Cl)cc2)c1=O
→ -1.3	-2.5
CN(CC(=O)Nc1ccc(F)cc1F)S(=O)(=O)c1ccc2[nH]c(=O)ccc2c1
→ -0.74	·
Cc1cc(C)n2nc(NC(=O)C(C)C)nc2n1
→ 2.3	-1
Cc1cc(Cl)ccc1NS(=O)(=O)c1ccc2c(c1)CCN2S(C)(=O)=O
→ 1.3	·
CC(=O)N1c2ccc(S(=O)(=O)NCC3CCC(C(=O)N(C)Cc4ccco4)CC3)cc2CC1C (centres undefined)
→ -1.1	·
CC(C)CCNC(=O)CCc1nc2sc3c(c2c(=O)[nH]1)CCC(C(C)(C)C)C3 (centres undefined)
→ 1.4	·
CCNC(=O)N(C)Cc1nc(-c2ccc(C)cc2)no1
→ 0.82	-0.25
O=C(NCc1nc(-c2ccc3c(c2)nnn3C2CCCC2)no1)c1ccco1
→ 1.8	·
S=c1nn[nH]n1C1CC2CC1C1C=CCC21 (centres undefined)
→ ·	-1.6
O=[N+]([O-])c1cccnc1NCc1ccccc1
→ ·	-1.3
CCS(=O)(=O)N1CCCc2ccc(NS(=O)(=O)c3ccc(C)cc3)cc21
→ -0.79	·
O=C(c1cc(C2CC2)on1)N1CCCC1c1ccccc1F (centres undefined)
→ 0.98	-1
CC(C)(C)NC(=O)Cn1c(=O)oc2cc(Cl)ccc21
→ ·	-0.94
CCCCSc1nc2c(c(=O)n1CC1CCCC1)C1(CCCCC1)Cc1ccccc1-2
→ ·	-1.5
Cn1c(=O)c2c(nc(NCc3ccc4c(c3)OCO4)n2Cc2ccc(Br)cc2)n(C)c1=O
→ 2	0.28
COC(=O)c1ccsc1NC(=O)Nc1cc2c(cc1N1CCCCC1)n(C)c(=O)n2C
→ -0.79	-1.9

Screening data as filed in PubChem BioAssay.
